Screening results: PubChem, several laboratories
HNF4A DNA FP: change in binding of human HNF4A to DNA, primary screen, biochemical, fluorescence polarization, FITC-DNA; Hepatocyte nuclear factor 4-alpha (Homo sapiens), P41235; 1 h; activity change, % at 10 µM; hit rate 0.3% among 360,000; AID 1224865, 2016; in the data active = activity change above about 30%, passing the limit was not always enough;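 note: controls were the assay level and a saturating level of protein; the project sought stronger binding though the title names inhibitors; some compounds called inactive have numbers as strong as hits; positive values seem to mean higher polarization but the record does not say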
rRNA inh HTS: reduced GFP signal of wild-type E. coli, primary screen, bacterial rRNA inhibitor project, GFP/RFP fluorescence, OD600, single point | E. coli WT GFP vs humanized-ribosome RFP mutants, 24 h; stronger effect = lower value; DMSO median 0, no signal -100 | GFP signal change (wild-type ribosome), % (test concentration not listed) | hit rate 1.6% among 350,000;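 active = significant combined selectivity score with lowered wild-type GFP, culture density cut under 30%, mutant RFP and density less affected; inactive = any of these conditions unmet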; note: one replicate is shown; some compounds called inactive have numbers as strong as hits
AF4-AF9 inh: inhibitors of AF4 peptide binding to AF9, primary screen, biochemical, AlphaScreen, biotin-AF4 peptide, FLAG-AF9, single point; Protein AF-9 (Homo sapiens), P42568; inhibition, % at 10 µM; AID 651704, 2012; hit rate 0.47% among 350,000;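 active = every replicate reaching a set inhibition limit, whatever the replicate mean, cut at about 25% in these data; inconclusive = mean inhibition reaches that limit but some replicates miss it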;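 note: 0% = plate neutral control median and 100% = total signal loss; the record names both 10 and 1 µM as test concentration; the first replicate is given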
Target sequence (P42568 whole entry, looked up): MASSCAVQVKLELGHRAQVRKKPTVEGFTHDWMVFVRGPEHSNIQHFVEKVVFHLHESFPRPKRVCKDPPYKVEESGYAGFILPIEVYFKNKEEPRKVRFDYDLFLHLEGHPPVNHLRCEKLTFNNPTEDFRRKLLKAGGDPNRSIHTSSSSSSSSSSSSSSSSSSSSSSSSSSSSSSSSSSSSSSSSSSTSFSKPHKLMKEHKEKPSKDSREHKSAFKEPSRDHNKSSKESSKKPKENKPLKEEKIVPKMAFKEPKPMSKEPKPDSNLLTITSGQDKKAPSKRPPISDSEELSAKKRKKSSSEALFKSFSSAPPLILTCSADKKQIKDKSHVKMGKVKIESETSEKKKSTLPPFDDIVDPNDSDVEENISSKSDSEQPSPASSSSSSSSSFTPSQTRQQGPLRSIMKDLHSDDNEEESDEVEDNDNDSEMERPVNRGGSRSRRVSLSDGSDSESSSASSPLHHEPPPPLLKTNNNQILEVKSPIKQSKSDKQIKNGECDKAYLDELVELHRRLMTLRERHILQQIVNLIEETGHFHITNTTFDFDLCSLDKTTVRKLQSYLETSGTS
Ecoli growth: E. coli growth inhibition, primary screen, OD600. hit rate 0.21% among 330,000. OD600 absorbance (test concentration not listed). AID 1053175, 2014. Escherichia coli growth, 23 h; stronger effect = lower value;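 active = OD600 absorbance below the run mean of sample wells minus 3.6 SD, in any replicate, cut at about 0.56 in these data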;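 note: stock transfer was 300 nL into about 60 µL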
FGF22 binding: binders of human FGF22 protein, primary screen, FGF22 synaptogenesis inhibitor project, biophysical, thermal shift, single point | calls only at 9.99 µM | Fibroblast growth factor 22 (Homo sapiens), Q9HCT0 | AID 651658, 2012 | recombinant FGF22 thermal shift, SYPRO orange fluorescence; percent of sucrose octasulfate shift, DMSO zero | hit rate 1.5% among 340,000;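 active = melting point raised past a set limit in the mean and every replicate; inconclusive = no clear call; three in four hits are not shown here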
Target sequence (Q9HCT0 whole entry, looked up): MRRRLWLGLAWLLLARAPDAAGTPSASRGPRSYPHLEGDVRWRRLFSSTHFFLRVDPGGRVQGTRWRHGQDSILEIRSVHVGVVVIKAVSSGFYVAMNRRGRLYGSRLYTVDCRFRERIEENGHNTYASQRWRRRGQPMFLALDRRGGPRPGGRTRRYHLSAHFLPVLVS
Vif TR-FRET: inhibitors of Vif binding to APOBEC3G peptide, primary screen, biochemical, TR-FRET, GST-Vif 1-94, biotin-A3G peptide, dose response retest (AID 1117319); hit rate 0.57% among 260,000; TR-FRET GST-Vif / biotin-A3G peptide binding; higher % means a stronger effect; test concentration not given here; strong numbers were not always called active; inhibition, %; hits with a dose series show IC50 in µM; Virion infectivity factor (Human immunodeficiency virus type 1 group M subtype B (isolate …;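 active = above the screen mean plus three standard deviations and confirmed in dose response; inconclusive = results disagree or hit not tested in dose response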;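 note: Vif residues 1-94 fused to GST binding biotinylated APOBEC3G peptide 110-148; 0% = full assay without inhibitor and 100% = GST in place of GST-Vif; retest series ran down from 100 µM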
ALR inh: inhibitors of human ALR sulfhydryl oxidase, primary screen, biochemical, H2O2 detection, HRP-luminol luminescence, single point. inhibition, % (test concentration not listed). purified ALR, DTT oxidation. FAD-linked sulfhydryl oxidase ALR (Homo sapiens), P55789. AID 485317, 2010. hit rate 3.8% among 290,000;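 active = mean and each replicate at 75% or more; inconclusive = only one of the two met; inactive = neither met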;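 note: stock transfer was 7.5 nL into about 7.5 µL; 0% = neutral wells and 100% = wells with inactivated enzyme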
Target sequence (P55789 whole entry, looked up): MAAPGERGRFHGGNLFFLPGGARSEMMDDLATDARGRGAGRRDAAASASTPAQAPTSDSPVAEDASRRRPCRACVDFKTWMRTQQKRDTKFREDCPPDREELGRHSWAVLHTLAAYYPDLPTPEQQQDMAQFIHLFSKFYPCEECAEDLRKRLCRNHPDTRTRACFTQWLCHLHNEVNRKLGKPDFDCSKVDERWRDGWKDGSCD
rRNA inh HTS OD600: further read-out of rRNA inh HTS, marked with its call; OD600 change, %; measured here: OD600 growth;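 optical density of the mix in the first replicate; 0 = DMSO median and -100 = no signal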
rRNA inh HTS RFP: recorded beside rRNA inh HTS, whose call it bears; RFP signal change, %; measured here: RFP humanized mutant strains;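 first replicate; 0 = DMSO median and -100 = no signal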
Numbers without * were called inactive; i = inactive; ? = inconclusive; · = not tested or not shown.

Compound	FGF22 binding	ALR inh	HNF4A DNA FP	Ecoli growth	rRNA inh HTS OD600	Vif TR-FRET	rRNA inh HTS	rRNA inh HTS RFP	AF4-AF9 inh
CCOc1ccc2nc(NC(=O)C3CCCN(S(=O)(=O)c4cccs4)C3)sc2c1 (stereo not drawn)	·	1.8	0.1	0.732	·	1.9%	·	·	·
O=C(O)CN1C(=O)/C(=C\c2cccc(OCc3ccc(F)cc3)c2)SC1=S	i	68.0	-1.7	0.676	-35.8	-0.2%	-23.4	-3.6	1.6
CCC1CCCCN1Cc1nc2c(c(=O)n(C)c(=O)n2C)n1Cc1cccc2ccccc12 (stereo not drawn)	·	-16.5	1.2	0.796	·	·	·	·	·
Cc1ccc(C(CNC(=O)c2ccc(Br)o2)N2CCN(C)CC2)cc1 (stereo not drawn)	i	-3.6	-1.6	0.683	1.1	-1.6%	3.9	-2.1	0.2
CCOC(=O)C1=C(C)Nc2nc(C)nn2C1c1ccc(OC)c(OC)c1 (stereo not drawn)	i	-5.9	5.1	0.66	1.4	1.5%	5.7	-0.1	2.4
Cc1ccc(NC2c3ncccc3C(=O)N2Cc2ccc(F)cc2)cc1 (stereo not drawn)	i	97.3*	0.8	0.668	-38.5	1.7%	-31.9	-9.7	-14.7
CC(C)(C)OC(=O)NCCCC[C@H](NC(=O)c1nc[nH]c1C(=O)N1CCN(c2ccccc2)CC1)C(=O)OC(C)(C)C	i	-3.8	1.3	·	1.1	5.5%	-4.4	-0.5	5.7
CN1C(=O)c2cc(NC(=O)C3CCCC3)ccc2OC[C@@H]2O[C@@H](CC(=O)Nc3ccccc3)CC[C@H]21	i	·	·	·	-5.0	·	1.2	1.3	-1.8
CCn1c(SCC(=O)NNC(=O)c2ccccc2)nnc1-c1ccncc1	·	·	1.1	0.706	13.7	7.3%	8.5	3.0	·
Cc1[nH]c(C)c2c(=O)n(Cc3ccc(Cl)cc3)ncc12	i	-2.8	0.3	0.656	10.3	-5.2%	5.7	1.3	0.4
COc1ccccc1-c1ccc2c(c1)O[C@H](CN(C)C(=O)Nc1ccccc1)[C@H](C)CN([C@@H](C)CO)S2(=O)=O	i	·	·	·	-16.0	·	-2.1	-3.0	-2.2
CCc1ccccc1OCC(=O)NC1CCCC1	·	·	4.6	0.694	·	4.2%	·	·	·
CC1(C)C2CCC1(CS(=O)(=O)NCCc1c[nH]c3ccccc13)C(=O)C2 (stereo not drawn)	i	-1.7	3.2	0.623	-0.1	·	-2.2	0.0	-0.8
CN1CCN(CCCNC(=O)c2cc3c(=O)n(C)c4ccccc4c3s2)CC1	i	58.8	1.2	0.723	-13.7	-0.2%	1.7	8.2	-3.8
CCOc1ccc(-c2nc(S(=O)(=O)c3ccccc3)c(N3CCOCC3)o2)cc1	i	5.5	0.5	0.661	3.8	2.1%	10.3	-0.9	3.1
Cc1ccc(CNC(=O)C(=O)NCC2OCCN2S(=O)(=O)c2cccs2)cc1 (stereo not drawn)	i	-4.1	-4.0	0.727	11.2	17.6%	3.0	2.4	-15.2
CCc1nnc(NC(=O)Cc2ccc(Br)cc2)s1	i	-1.1	-2.1	0.672	12.4	0.4%	10.7	-0.7	-1.9
COc1ccc(CNC(=O)CCNS(=O)(=O)c2ccc(Cl)cc2)cc1	i	0.7	-2.1	0.656	11.7	6.7%	-0.6	-1.2	1.4
CC(=O)Nc1ccc(S(=O)(=O)N(C)CC(=O)NC2CCCCCCC2)cc1	i	3.1	-0.1	0.672	·	1.0%	·	·	-3.3
CCOc1ccc(C2NC(=O)c3ccccc3O2)cc1OCC (stereo not drawn)	i	-0.6	0.9	0.566	7.0	4.1%	9.8	0.8	0.7
CCN(CC)C(=O)C1=C(C)N(CCCN2CCCC2=O)C(=O)C(CC(=O)NCCCCc2ccccc2)C1 (stereo not drawn)	i	·	-4.0	·	1.8	-1.3%	5.2	-3.8	-5.4
CCN(CC(=O)Nc1ccc2c(c1)OCCO2)C(=O)C(C)Oc1ccc(F)cc1 (stereo not drawn)	i	·	0.7	0.689	-4.7	-1.4%	0.4	1.3	-18.9
CCOC(=O)C1CCN(C(=O)CCc2c(C)nc3ncnn3c2C)CC1	·	-1.7	-3.7	0.659	·	-5.8%	·	·	·
CC1CN(S(=O)(=O)c2cccc(C(=O)N(C)C3CCCCC3)c2)CC(C)O1 (stereo not drawn)	i	·	0.7	·	·	-0.1%	·	·	-1.0
CC1(C)CC(=O)C=C(c2n[nH]nc2-c2ccccc2)C1	i	·	-2.8	·	-16.2	4.4%	-19.3	-2.3	-2.0
Clc1ccccc1COc1ccccc1-c1nnco1	·	-0.8	1.8	0.674	·	0.5%	·	·	·
C[C@H](CO)N1C[C@H](C)[C@H](CN(C)Cc2ccc(Cl)c(Cl)c2)Oc2ccc(NS(=O)(=O)c3cccs3)cc2CC1=O	i	·	·	·	6.9	·	2.0	0.0	-0.4
COc1ccccc1CNC(=O)C1CCC1	i	-1.4	-0.1	0.668	5.9	·	12.8	0.5	4.4
COCCn1nnnc1C(CC(C)C)N1CCN(c2nc3ccccc3s2)CC1 (stereo not drawn)	i	-9.5	0.8	0.698	16.1	-5.5%	20.6	4.0	-2.8
COc1cccc(OC)c1C(=O)NCC12CC3CC(C1)CC(CNC(=O)c1c(OC)cccc1OC)(C3)C2	i	-1.5	-2.7	0.718	3.1	·	12.6	1.0	-3.7
CCCNC(=S)N1CCCC(c2nc3ccccc3[nH]2)C1 (stereo not drawn)	i	-15.3	-0.8	0.643	-11.7	·	-10.3	-4.1	0.7
CS(=O)(=O)c1ccc(C(=O)Nc2cccc(-c3nc4ccccc4[nH]3)c2)cc1	i	98.7*	2.5	0.699	11.2	·	9.7	0.3	3.9
COc1ccc(CN(C)C[C@H]2OCCCC[C@@H](C)Oc3ccc(NS(=O)(=O)c4ccccc4)cc3C(=O)N([C@H](C)CO)C[C@@H]2C)cc1	i	·	·	·	-0.4	·	1.2	1.2	-0.4
CO[C@@H]1CN(C)C(=O)c2cc(NS(=O)(=O)c3cn(C)cn3)ccc2OC[C@@H](C)N(CCC(F)(F)F)C[C@H]1C	i	·	·	·	-2.1	·	-2.6	0.0	-0.4
COc1cccc(NC(=O)NCC2CCN(Cc3ccc(F)cc3)CC2)c1	i	10.7	-2.4	0.668	7.9	-3.2%	12.5	1.3	-2.4
Nc1c(C(=O)CSc2nnc(COc3ccc(Cl)cc3)o2)c(=O)[nH]c(=O)n1C1CC1	i	-6.0	1.5	0.686	17.6	-15.7%	5.9	0.0	-1.4
COc1ccc(CC(=O)NCc2n[nH]c(=S)n2-c2ccc(F)cc2)cc1	·	-11.7	2.5	0.689	12.0	5.6%	15.5	-2.2	-7.4
Cc1ccc(S(=O)(=O)Nc2cccc3c2O[C@H](CN(C)C(=O)Nc2ccc4c(c2)OCO4)[C@H](C)CN([C@H](C)CO)C3=O)cc1	i	·	·	·	-6.8	·	0.7	1.2	9.9
CC(=O)N(Cc1ccccc1)c1ccc(C(=O)O)cc1	·	-3.1	0.7	0.639	-4.8	-3.7%	-2.6	-1.8	·
CCCc1nc(N2CCCC2)c(C#N)c2c1CCCC2	·	1.5	1.2	0.72	·	19.4%	·	·	·
O=C(CC(F)(F)F)N1C[C@@H]2[C@H](c3ccccc31)[C@@H](CO)N2C(=O)C1CCOCC1	i	·	·	·	10.8	·	4.5	0.7	-0.8
COc1ccc(NC(=O)Cn2nnc(-c3ccccc3NS(=O)(=O)c3ccc(OC)cc3)n2)cc1	i	-0.8	1.1	0.684	12.7	0.2%	2.8	0.4	4.9
CC(C)(C)OC(=O)N1CCC(c2c(C(=O)N3CCN(C4CCCCC4)CC3)cnn2-c2ccccc2)CC1	i	4.1	4.9	0.703	1.2	·	3.1	0.5	5.8
CCOP(=O)(c1ccccc1)C(O)c1ccc(F)cc1 (stereo not drawn)	i	-5.4	-5.1	0.707	·	-7.9%	·	·	-2.1
O=C(NCc1ccc(Cl)cc1)c1cc2ccccn2n1	i	8.9	-2.5	0.743	-1.5	9.0%	2.1	0.8	6.9
CCOc1ccc(C2CC=C(C(C)=O)CN2S(=O)(=O)c2ccc(C)cc2)cc1 (stereo not drawn)	i	·	-1.8	·	·	·	·	·	-0.8
COc1ccccc1[C@@]1(C)ON(c2ccccc2C(F)(F)F)C1=O	i	-0.9	-0.2	·	-29.2	·	-6.4	11.7	4.2
O=C(Nc1ccccc1N1CCOCC1)C1=COCCO1	i	3.2	1.2	0.704	-0.4	-11.1%	0.2	-0.6	4.3

Some of the entries so far, with two lines to a compound.
Fields – FGF22 binding | ALR inh | HNF4A DNA FP | Ecoli growth | rRNA inh HTS OD600 | Vif TR-FRET | rRNA inh HTS | rRNA inh HTS RFP | AF4-AF9 inh
- CCOc1ccc(C2CC=C(C(C)=O)CN2S(=O)(=O)c2ccc(C)cc2)cc1 (stereo not drawn)
    i | · | -1.8 | · | · | · | · | · | -0.8
- COc1ccccc1[C@@]1(C)ON(c2ccccc2C(F)(F)F)C1=O
    i | -0.9 | -0.2 | · | -29.2 | · | -6.4 | 11.7 | 4.2

Following part:
Compound	FGF22 binding	ALR inh	HNF4A DNA FP	Ecoli growth	rRNA inh HTS OD600	Vif TR-FRET	rRNA inh HTS	rRNA inh HTS RFP	AF4-AF9 inh
CC(=O)c1cccc(NC(=O)N2CCC(c3nnc(SCC(N)=O)n3C)CC2)c1	·	-0.3	0.2	0.714	·	0.5%	·	·	·
C[C@H]1CCCCO[C@@H](CN(C)S(=O)(=O)c2cn(C)cn2)[C@@H](C)CN([C@@H](C)CO)C(=O)c2cc(NC(=O)C3CCCCC3)ccc2O1	i	·	·	·	-6.4	·	-0.7	-1.1	-1.0
COc1ccc(NC(=S)N(CCCN2CCCC2)Cc2cccs2)cc1	·	-25.6	1.7	0.692	·	·	·	·	·
COc1ccccc1C1CC(=O)NC(C)=C1C(=O)OCC(C)C (stereo not drawn)	·	0.5	-1.1	0.769	·	1.2%	·	·	·
c1ccc(-c2ccc(-c3nc(-c4cccnc4)no3)cc2)cc1	·	-1.7	3.6	0.662	·	-4.5%	·	·	·
Cc1cc(C)cc(NC(=S)NC2CC3CCC(C2)N3Cc2ccco2)c1 (stereo not drawn)	i	2.7	-1.3	0.66	·	5.6%	·	·	14.4
Cc1ccc2c(COC(=O)CNS(=O)(=O)c3ccccc3)cc(=O)oc2c1	i	0.6	2.4	0.649	-7.8	·	-2.1	3.8	2.1
Cc1ccc(C(=O)NCC(=O)O)s1	i	-1.2	0.1	0.624	22.9	10.0%	11.4	5.3	-13.1
COc1ccc(-c2cnc3c(c2)C(=O)N([C@H](C)CO)C[C@H](C)[C@H](CN(C)C(=O)C2CCC2)O3)cc1	i	·	·	·	13.3	·	4.2	-1.3	-0.7
C/C(=N\N=C(N)N)c1cccc([N+](=O)[O-])c1	i	-12.1	-0.1	·	-2.4	?	-4.8	2.0	14.3
CCN(CC)CCOCCOc1ccccc1F	i	-5.4	0.0	0.685	12.4	-5.3%	24.6	-1.4	-5.3

Only part of the results is shown (hit frequency here may not be typical).
